VDR inh – blocks the human vitamin D receptor; P11473; VDR-SRC2-3 peptide fluorescence polarization, 2 h; Potency, µM, without a hit: max response, negative = inhibition, actives largely listed as inhibitors; 400,000 tested, 0.93% active; AID 504847; active = well fitted inhibition curve with a large enough effect; inconclusive = small, poorly fitted or top-dose-only effect, or another doubt; inactive = no such curve, though single readings can be large or run the other way; also: series mostly up to about 120 µM
Target sequence (P11473 whole entry, looked up): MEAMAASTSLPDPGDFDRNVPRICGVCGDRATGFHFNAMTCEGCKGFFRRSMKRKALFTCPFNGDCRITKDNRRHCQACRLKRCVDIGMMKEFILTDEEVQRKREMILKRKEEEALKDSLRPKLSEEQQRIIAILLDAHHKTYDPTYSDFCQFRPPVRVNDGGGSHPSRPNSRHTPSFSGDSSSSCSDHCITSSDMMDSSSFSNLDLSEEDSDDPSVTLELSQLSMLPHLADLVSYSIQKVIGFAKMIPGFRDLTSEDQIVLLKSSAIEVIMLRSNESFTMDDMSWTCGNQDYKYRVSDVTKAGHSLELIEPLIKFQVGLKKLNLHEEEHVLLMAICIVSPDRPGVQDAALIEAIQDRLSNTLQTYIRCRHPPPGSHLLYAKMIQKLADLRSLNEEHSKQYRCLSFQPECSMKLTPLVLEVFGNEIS
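VDR–SRC2-3 interaction, FP format. Cmpds 23 nl via pintool, brief spin, 2 h ambient incubation.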
Numbers without * were called inactive; ? = inconclusive; & = joins results of further samples; [ ] = another dose, or the depositor's remark. % is scaled to controls: 0 for no effect and ±100 for the full control effect; potency is read from the fitted curve at half-maximal effect. Only part of the results is shown; rates above refer to the full screens.

SMILES	VDR inh
Cc1cccc(C(=O)NCc2nnc(SCC(=O)NC3=NCCS3)n2C)c1	-5.9%
CC1=Nc2cc(C(=O)NCC3CCCO3)ccc2Sc2ccc(C)cc21 (stereo not given)	-17.0%
Cc1ccc(SCC(=O)Nc2cc(C)on2)cc1	-14.9%
Cc1cccc(OCc2nc(C#N)c(NCCN(C)C)o2)c1	-15.2%
Nc1cc(-c2nn[nH]n2)ccc1F	3.4%
CCCCC(=O)Nc1cccc(C(=O)N/N=C/c2ccc(OC)cc2OC)c1	-11.7%
CN(Cc1ccccc1)C(=O)c1[nH]cnc1C(=O)N[C@@H](CCCCNC(=O)OC(C)(C)C)C(=O)OC(C)(C)C	4.8%
Cc1cc(NC(=O)c2ccc3c(c2)C(=O)N(C(C)(C)C)C3=O)no1	2.7%
COC(=O)Cn1c(CCC(=O)O)ccc1-c1ccccc1	-3.4%
Cc1cccc(NC(=O)C2CCN(S(=O)(=O)c3ccc4ccccc4c3)CC2)n1	-0.3%
CCCN1CCN(CCCNC(=O)c2cc3c(=O)[nH]c4ccccc4c3s2)CC1	-14.3%&-9.3%
CCC1CCCCN1CCCNC(=O)CC1Oc2ccc(C)cc2NC1=O (stereo not given)	-4.0%
CCOC(=O)c1cccc(NC(=O)CSc2nnc(-c3ccoc3C)n2CC)c1	-8.4%
N#Cc1c(N)nc(SCc2ccccn2)c(C#N)c1-c1cccs1	15.9%
CSc1nc2ccccc2n1Cc1cccc(F)c1	-3.2%
O=C1c2cccc3c(N4CCCCC4)ccc(c23)C(=O)N1c1ccccc1O	-9.9%
Cn1cncc1C#Cc1ccc2c(=O)c3ccccc3oc2c1	0.2%
CCOCCOC(=O)c1ccc(NC(=O)c2cc3ccccc3o2)cc1	18.1%
COc1c2ccoc2c(OC[C@@H](O)C(C)(C)O)c2oc(=O)ccc12	-14.4%
CC(=O)Nc1nc2nc(-c3ccccc3)cc(-c3ccccc3)n2n1	-3.9%
Cc1cccc(NC2SC(=O)N(c3ccccc3)C2=O)c1 (stereo not given)	-6.6%
COc1ccc(Nc2c3c(nc4ccc(NC(=O)c5ccc(F)cc5)cc24)CCCC3)cc1OC	-18.7%
COc1cc(C(=O)NNC(=O)c2ccoc2C)cc(OC)c1OC	-3.8%
c1cc(CNCC2CCCO2)ccn1 (stereo not given)	-21.0%
COc1cc(/C=C(\C#N)c2nc3ccccc3[nH]2)ccc1OCc1cccc(C(F)(F)F)c1	11.4%
COc1ccc(C(=O)N2CCN=C2SC)cc1	-5.0%
Cc1ccc(C(=O)/C=C/C(=O)O)cc1	14.1µM*
Cc1nn(CC(=O)N2CCCC2)c(=O)c2nn(-c3ccccc3)c(C)c12	8.1%
N=c1c2c(-c3ccccc3)c(-c3ccccc3)n(Cc3ccccc3)c2ncn1CCO	0.1%
CCNc1nc(N2CCCCC2)nc(-n2nnc(C(=O)OCC)c2C)n1	-0.2%
COc1ccc(N2C(=O)CSC23C(=O)N(CC(=O)NCc2ccccc2)c2ccccc23)cc1 (stereo not given)	14.7%
OCCC1CN(Cc2cc3c(cc2Cl)OCO3)CCN1Cc1ccccc1 (stereo not given)	6.8%
CCCC(=O)Nc1ncnc2c1ncn2C1OC2COP(=O)(O)OC2C1OC(=O)CCC (stereo not given)	7.1%
CC(C)(C)c1ccc(OCC(O)CNC(=O)c2ccccc2C(=O)O)cc1 (stereo not given)	11.3%
COc1ccc(S(=O)(=O)Nc2c(C)cccc2C)cc1-n1cnnn1	-1.6%
CN(C)CCCNC(=O)Cc1ccc(Br)cc1	1.6%
CCOc1ccc(CCNC(=O)COC(=O)c2c(OC)cccc2OC)cc1OCC	-10.4%
O=C(Nc1ccc(Cl)c([N+](=O)[O-])c1)C(Sc1ccccc1)c1ccccc1 (stereo not given)	-18.2%
CC(C)(C)C1CCc2c(sc(NC(=O)C3c4ccccc4Oc4ccccc43)c2C(N)=O)C1 (stereo not given)	-11.4%
CCOC(=O)CSc1nc2cc3c(cc2cc1CC)OCCO3	1.2%
CN(C)S(=O)(=O)c1ccc(C(=O)N2CCN(C(=O)C3CCCO3)CC2)cc1 (stereo not given)	-20.2%
CC(C)CCn1c(Sc2nc3ccccc3o2)nc2c1c(=O)[nH]c(=O)n2C	-16.4%
O=C(CN1CCN(c2ccccc2)CC1)Nc1nnc(-c2ccccc2)s1	1.1%
NC(=O)C1c2ccccc2Oc2ccccc21	9.7%
CCCCn1nc(C(=O)NNC(=O)c2ccncc2)c2ccccc2c1=O	-7.5%
COc1ccc(-n2c(SCc3cccnc3)nc3c(c2=O)SCC3)cc1OC	33.9%[activator]
O=C(O/N=C\c1ccc(N2CCCCC2)c([N+](=O)[O-])c1)c1ccc(Cl)cc1Cl	-11.9%
CCOc1ccc(CNC(=O)c2cc3cc(S(=O)(=O)N4CCCCC4)ccc3n2C)cc1	5.0%
COc1ccc(C(=O)N2CCC(C(=O)O)CC2)cc1	-7.2%
CSCCC(NC(=O)c1ccc(Cl)cc1)C(=O)NC(C)(C)C (stereo not given)	1.9%
C=CCN(CC=C)S(=O)(=O)c1ccc(NC(=S)NC(=O)c2ccco2)cc1	-0.4%
CCN(CC)C(=O)COc1ccc(-c2nnc(N3CCCCC3)c3ccccc23)cc1	4.5%
CCOC(=O)CNC(=O)CCCCCC(=O)NCC(=O)OCC	9.6%
CCCSc1nc2c(c(=O)n1CC)SC(C)C2 (stereo not given)	7.9%
O=C(Cc1cn(Cc2cccc(Cl)c2)c2ccccc12)N1CCCCCC1	-11.4%
CC(C)C(OC(=O)c1cccs1)C(=O)NCc1ccco1 (stereo not given)	-12.5%
CN(C(=O)c1cc2ccccc2cc1O)C1CCCCC1	9.7%
Cc1nc(-c2cccnc2)sc1CCNS(=O)(=O)c1ccc(F)cc1	1.9%
Cc1ccc(C(=O)COC(=O)c2ccncc2)cc1[N+](=O)[O-]	1.7%
CC(=O)c1c(C)n(-c2ccc(Br)cc2)c2ccc(O)cc12	-16.9%

The results go on.
SMILES	VDR inh
CC1CCN(c2nc(-c3ccc(C(C)(C)C)cc3)nc3ccccc23)CC1	12.6%
O=C(NCc1ccco1)NC1CCCCC1	-13.3%
O=C1CS/C(=N/N=C/c2ccccc2)N1c1ccc(O)cc1	-9.0%
CC1C2CC(CC1(C)C)N(C(=O)Nc1ccc3nccnc3c1)C2 (stereo not given)	-8.7%
CCOC(=O)CSc1ncc(-c2ccccc2)cn1	-0.2%
COc1nc(NCc2ccc(Cl)cc2)nc(OC)n1	8.5%
CCN(Cc1nc2ccccc2c(=O)[nH]1)C(=O)C1CC(=O)N(c2cccc3ccccc23)C1 (stereo not given)	-0.6%
O=C(O)C1CCCCN1C(=O)c1cc2c(s1)CCCCC2 (stereo not given)	-1.6%
CCOc1cc(N2CCOCC2)c(OCC)cc1NC(=S)NCCCOC	-5.9%
CC(=O)NS(=O)(=O)c1ccc(N2C(=O)CC(Sc3nccc(C)n3)C2=O)cc1 (stereo not given)	-7.6%
CCc1nc(SCc2cc(=O)[nH]c3ccccc23)c2c(C)c(C)sc2n1	-22.6%
COc1ccc(CCNS(=O)(=O)CC23CCC(CC2=O)C3(C)C)cc1OC (stereo not given)	-24.7%
COc1ccc(CCNC(=O)COC(=O)Cc2ccccc2[N+](=O)[O-])cc1	-6.4%
O=C(C=Cc1ccco1)N1CCOCC1	-3.9%
S=c1[nH]nc(-c2cccnc2)n1/N=C/C=C/c1ccco1	-9.4%
COc1ccc(C(=O)Nc2ccccc2C(=O)NC(Cc2ccc(O)cc2)C(=O)NNC(=O)c2ccccc2)cc1 (stereo not given)	5.9%
CC(C)[C@H](NC(=O)N1CC(=O)Nc2ccccc21)C(=O)N[C@@H](Cc1ccccc1)C(=O)O	1.5%
CCCC(O)(CCN1CCOCC1)c1ccc(Br)cc1 (stereo not given)	-1.9%
Nc1nc(NCC(=O)O)nc(N2CCCCCC2)c1[N+](=O)[O-]	-7.2%
CC(C)(C)OC(=O)NCc1ccc(NC(=O)c2nc[nH]c2C(=O)N[C@@H](Cc2ccccc2)C(=O)OCc2ccccc2)cc1	-8.3%
O=C(Oc1c(Cl)cc(Cl)c2cccnc12)c1cccc([N+](=O)[O-])c1	-20.3%
COc1ccc(-c2cnn3c(N)c(S(=O)(=O)c4ccccc4)cnc23)cc1	4.3%
Cc1ccc(NS(=O)(=O)c2ccc(Cl)c(C(=O)O)c2)cc1S(=O)(=O)N1CCOCC1	2.9%
O=C(CCN1C(=O)C2C3CCC(C3)C2C1=O)Nc1ccc(Cl)cc1Cl (stereo not given)	5.8%
Nc1ccc2c3c(cccc13)-c1ccccc1-2	-15.2%
c1ccc(CNc2ccc3ccccc3n2)nc1	5.5%
C/C(=N/N=C(\C)c1ccccc1O)c1ccccc1O	-7.3%
CCCNC(=O)COc1coc(CN2CCN(c3ccccc3F)CC2)cc1=O	-2.9%
CCCCOC(=O)CCc1nc2ccccc2[nH]1	2.0%
CC1CCN(S(=O)(=O)c2cn(CC(=O)N3CCN(C)CC3)c(=O)c3ccccc23)CC1	-0.6%
COC(=O)N1C(=O)[C@@](c2ccccc2)(C2CCCCC2)N1C(=O)OC	?
CC1(C2CC2)NC(=O)N(CC(=O)Nc2cc(S(=O)(=O)N3CCCCC3)ccc2Cl)C1=O (stereo not given)	-2.8%
Cc1cc(Cl)ccc1NC(=S)NCc1cccs1	-3.8%
CCOC(=O)c1cc(C(=O)Nc2ccc(C)c(F)c2)nn1C	-9.1%
COc1ccc(/C=N/Nc2nc(N3CCCC3)nc(N3CCCC3)n2)cc1O	16.6%
CC(=O)c1cccc(NC(=O)c2nc(-c3ccccc3)oc2C)c1	8.4%
CCOc1ccc(-c2cnc(NCc3cccc4ccccc34)n2CCOC)cc1	-20.0%
Cn1ccnc1/C(=N\NC(=O)c1ccc(O)cc1)c1cccc([N+](=O)[O-])c1	6.8%
COC(=O)c1ccc(-n2nc(C(F)(F)F)c3c2-c2ccoc2CC3)cc1	?
COC(=O)c1cc2n(n1)CCN(Cc1ccccc1Cl)C2=O	-0.3%
CCCCOc1cccc(C(=O)N(Cc2cccs2)c2ccc(OC)cc2)c1	15.7%
N#Cc1nc(-c2ccc(F)cc2)oc1NCc1ccccc1	-29.5%
COc1ccc(CNC(=O)CCS(=O)(=O)c2cc3c4c(c2)CCN4C(=O)CC3)cc1	10.5%
CC1CCCCC12NC(=O)N(CC(=O)OCC(=O)c1ccc(OC(F)F)cc1OC(F)F)C2=O (stereo not given)	-6.6%
COc1cc(C(=O)NCC2(c3ccccc3)CCCC2)ccc1OC(C)C	1.7%
COc1cc(C2NC(=O)NC(C)=C2C(=O)OCc2ccc(C)cc2)cc(OC)c1OC (stereo not given)	-21.9%
Cc1csc(NC(C)c2nc3cc(C(F)(F)F)ccc3n2CCOCCO)n1 (stereo not given)	10.8%
CCOC(=O)C1CCN(S(=O)(=O)c2ccc(C(C)(C)C)cc2)CC1	12.9%
Cc1ccc(C23CC4CC(CC(CC(=O)N5CCOCC5)(C4)C2)C3)cc1	19.7%
CC(C)(Cc1ccccc1)/[N+]([O-])=C\c1ccc(C(F)(F)F)cc1	3.8%
Cc1ccc2c(c1)C1CN(C)CCC1N2S(=O)(=O)c1cccc(C(F)(F)F)c1 (stereo not given)	?
CN(c1nc2ccccc2n2c(C3CC3)nnc12)S(=O)(=O)c1ccccc1	-5.1%
COc1ccc(C(=O)N(CCc2ccccc2)Cc2ccccc2)c(OC)n1	6.0%
Cc1cccc(-c2ocnc2C(=O)N2CCN(C(=O)c3cccs3)CC2)c1	-3.6%
O=C(C[n+]1ccc(C(=O)NCc2ccccc2)cc1)c1ccc(OC(F)F)cc1	-3.0%
COc1cccc(/C=C(\C#N)c2nc3ccccc3[nH]2)c1OCC(=O)O	-8.0%
CN(C(=O)COC(=O)C1CCN(S(=O)(=O)c2ccc3c(c2)OCCO3)CC1)C1CCS(=O)(=O)C1 (stereo not given)	-2.7%
COc1ccc(OCCC(=O)Nc2ccc(S(N)(=O)=O)cc2)cc1	5.8%
CN=C1S/C(=C\c2ccc(O)c(Br)c2)C(=O)N1C	-10.0%
O=C(Cc1cccs1)N(Cc1ccco1)C1(C(=O)NC2CCCCC2)CCCCC1	6.8%

New compounds follow.
SMILES	VDR inh
O=C(O)COc1ccccc1/C=N/NC(=O)c1cccc(S(=O)(=O)N2CCOCC2)c1	?
Cc1cc([N+](=O)[O-])nn1CCCC(=O)Nc1cccc(Cl)c1Cl	2.8%
O=S(=O)(Cc1ccccc1)Nc1ccccc1	-9.7%
Cc1ccc(S(=O)(=O)n2nc(C)cc2N)cc1	10.2%
CCN1CCN(C(=O)c2cnn(-c3cccc(Cl)c3)c2C2CCN(C(=O)OC(C)(C)C)CC2)CC1	-2.7%
Cc1ccc(C(=O)N/C(=C\c2cccc([N+](=O)[O-])c2)C(=O)NCc2ccncc2)cc1	-6.6%
Cc1cnc(NC(=O)c2ccccn2)s1	-3.3%
O=C(/C=C/c1ccc(Cl)cc1Cl)c1cccnc1	20µM*

Screens (PubChem BioAssay)
